# MT1-MMP act inh = inhibitors of human MT1-MMP activation; P50281; HT1080 RFP-PRO-GFP cells, GFP/RFP ratio fluorescence, overnight; percent of plate control window, DMSO zero; GFP/RFP ratio change, % at 20 µM; 0.061% of 360,000 active;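 active means GFP/RFP ratio change of at least 30% with cell ATP level not reduced by more than half and red fluorescence within 50% of control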; further: strong numbers were not always called active
#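 Assay system: HT1080 cells carrying an RFP-PRO-GFP reporter | Dosing: Single dose of 20 µM compound, 1% DMSO final | Incubation: Cells overnight before dosing, compound overnight, 37 °C, 5% CO2 | Evaluation: GFP/RFP fluorescence ratio | Control set: DMSO and RFP-L50D-GFP cell wells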
# Rce1 inh = yeast Ras-converting enzyme inhibition. yeast membranes, quenched prenylated peptide cleavage fluorescence. 0.27% of 290,000 active. Q03530. calls only;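 active means fall in fluorescence gain of 50% or more versus controls, with final raw signal at or below 3038400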;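 further: plate controls were neutral control wells for no effect and wells lacking membranes for full effect; tested at 10 µM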
# Target sequence (Q03530 whole entry, looked up): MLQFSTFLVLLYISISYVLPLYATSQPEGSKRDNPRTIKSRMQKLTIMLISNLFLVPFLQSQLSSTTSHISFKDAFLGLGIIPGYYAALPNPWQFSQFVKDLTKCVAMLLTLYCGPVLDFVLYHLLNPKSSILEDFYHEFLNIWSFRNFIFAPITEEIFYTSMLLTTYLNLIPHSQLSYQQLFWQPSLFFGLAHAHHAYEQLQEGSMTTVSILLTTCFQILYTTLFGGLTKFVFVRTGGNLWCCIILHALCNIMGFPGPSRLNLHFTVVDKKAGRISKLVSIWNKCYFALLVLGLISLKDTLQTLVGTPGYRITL
# PABP FP inh = blocks human PABP binding to poly(A) RNA; inhibition, % at 35 µM; P11940; 1% of 290,000 active; fluorescence polarization;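 active means 50% or more with normal probe brightness, or confirmed in later tests; about a fifth of its hits are not listed in these tables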;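 further: calls also rest on retests at 20 µM and on dose response follow-up; controls were probe without protein and protein plus probe with vehicle; some compounds called inactive have numbers as strong as hits; many hits fall short of the cut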
# CSC inhib = cancer stem cell inhibition; cancer stem cell-like cells viability, luminescence; inhibition, % at 7.5 µM; 1.1% of 300,000 active; AID 2717;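 active means mean at 75% or more and at least half the replicates too; tested in HMLE shEcad cells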;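 further: 0% = median of negative and 100% = median of positive control wells; the first replicate is given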
# eIF4H FP inh = inhibitors of RNA binding by human eIF4H. inhibition, % at 35 µM. Q15056. 0.94% of 290,000 active. eIF4H fluorescence polarization binding assay. AID 2012;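 active means 50% or more with normal probe brightness, or confirmed in later tests; about a fifth of its hits are not listed in these tables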;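 further: calls also rest on retests at 20 µM and on dose response follow-up; 0% = protein and probe with vehicle and 100% = probe without protein; strong numbers were not always called active; many hits fall short of the cut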
# HIV Env fusion = HIV envelope-mediated fusion inhibition; AID 651610; inhibition, % at 12.3 µM; HeLa-JRFL Env/CEM21 cell fusion, luciferase; 1.1% of 360,000 active;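 active means mean replicate inhibition score of at least 50 and every replicate individually at or above 50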;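 further: 0% = plate neutral controls and 100% = maraviroc near 300 nM; one replicate is shown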
# Yeast UUG start = alters start codon recognition fidelity in yeast | S. cerevisiae UUG-firefly luciferase reporter, luminescence/redox ratio | AID 602363 | activity score, % at 18.7 µM | 0.13% of 350,000 active;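 active means replicate mean at a twofold rise or more, about +100% in these data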;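 further: firefly luciferase made from a UUG start codon reports start codon fidelity; reporter light over untreated wells divided by growth signal over untreated wells; some hits fall short of that in this replicate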
# MT1-MMP act inh RFP = also measured in MT1-MMP act inh; calls as there; RFP signal change, %; measured here: RFP expression control read;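 0 = vehicle wells; hits needed this value within 50% of zero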
# * hit, by the source's call; i = inactive; . = no result given; & = joins results of further samples.
[1] CCCNC(=O)OCCC12CC3CC(CC(C3)C1)C2
[2] O=[n+]1cc(-c2ccc(Br)cc2)n([O-])c2c1CCC2
[3] Cn1c(CC(=O)c2ccc(Br)cc2)[n+](C)c2ccccc21
[4] Cn1c(N/N=C2\CCCc3ccccc32)nc2c1c(=O)n(Cc1ccccc1)c(=O)n2C
[5] C[C@@H]1CN([C@@H](C)CO)C(=O)Cc2cc(NS(=O)(=O)c3ccccc3)ccc2O[C@H]1CN(C)Cc1ccncc1
[6] O=C(NCCS(=O)(=O)N1CCN(c2ccccc2F)CC1)c1ccc(Br)o1
[7] CCOC(=O)CSc1nnc(-c2nnc(SCC(=O)OCC)n2CC)n1CC
[8] COc1cc(NC(=O)COC(=O)c2ccc([N+](=O)[O-])s2)cc(OC)c1OC
[9] COc1ccc(CC(=O)Nc2sc3c(c2C(N)=O)CCCC3)cc1OC
[10] COc1ccc(-c2cc(C(=O)Nc3ccccc3O)c3ccccc3n2)cc1

Screen / compound no.,1,2,3,4,5,6,7,8,9,10
MT1-MMP act inh,-3,2,-3,8,-3,3,7,5,-2,9
MT1-MMP act inh RFP,-4,4,-3,-10,-3,3,2,-2,-15,-2
Rce1 inh,i,i,i,i,.,i,i,.,i,i
PABP FP inh,-3,6,-6,1,.,6,7,.,13,.
CSC inhib,12,-17,-10,-1,-17,-9,1,-13,0,.
eIF4H FP inh,7,2,5,10,.,-10,0,.,-9,.
HIV Env fusion,17,-11,-4,19,0,3,-21,9,-9,5
Yeast UUG start,-13,.,.,-7,-1&-21,-9,-9,-18,-11,-8

# Continued, overlapping the part above by 2 compounds.
[9] COc1ccc(CC(=O)Nc2sc3c(c2C(N)=O)CCCC3)cc1OC
[10] COc1ccc(-c2cc(C(=O)Nc3ccccc3O)c3ccccc3n2)cc1
[11] C[C@@H]1CCCCCCCCC(=O)OCCN(C(=O)OC(C)(C)C)[C@H](C)CCCCCCCCC(=O)OCCN1C(=O)OC(C)(C)C
[12] CC(O)c1cccc(N=Cc2ccc3ccccc3c2O)c1 (stereo not given)
[13] CCN(CC)c1ccc2c(C)c(CO)c(=O)oc2c1
[14] CCCCOc1ccc(C(=O)Nc2ccc3c(c2)C(=O)NC3=O)cc1
[15] Cc1cc(C)n2c(Br)c(CSc3nc4ccccc4s3)nc2n1
[16] COc1ccc(C(C2C(=O)CC(C)(C)CC2=O)C2C(=O)CC(C)(C)CC2=O)cc1COCC(F)(F)F
[17] Cc1cc(C)nc(NC(=O)c2cc(-c3ccc4c(c3)OCO4)nc3ccccc23)c1
[18] Cc1cc(C)n2nc(-c3cnn(C)c3C(F)(F)F)cc2n1
[19] CC1=NNC(=O)C1CCC(=O)N/N=C(\C)c1ccc(Cl)cc1 (stereo not given)
[20] Cc1ccc(NC(=S)NN2CCN(C)CC2)cc1

Screen / compound no.,9,10,11,12,13,14,15,16,17,18,19,20
MT1-MMP act inh,-2,9,-3,3,-1,7,0,-6,-9,12,9,-6
MT1-MMP act inh RFP,-15,-2,-5,4,2,6,0,-6,-1,0,6,-1
Rce1 inh,i,i,.,i,i,i,i,i,i,i,i,i
PABP FP inh,13,.,.,14,-7,-11,-1,-13,-8,-16,-1,0
CSC inhib,0,.,-7,-12,-1,7,-13,-5,9,-4,9,-5
eIF4H FP inh,-9,.,.,2,-3,2,6,-4,0,-2,1,1
HIV Env fusion,-9,5,24,4,-41,5,.,.,-10,-42,-14,-22
Yeast UUG start,-11,-8,-20,-8,.,-18,-15,-17,-12,-10,-10,-16

# Quoted at random: 6 entries already listed
[10] COc1ccc(-c2cc(C(=O)Nc3ccccc3O)c3ccccc3n2)cc1
[16] COc1ccc(C(C2C(=O)CC(C)(C)CC2=O)C2C(=O)CC(C)(C)CC2=O)cc1COCC(F)(F)F
[6] O=C(NCCS(=O)(=O)N1CCN(c2ccccc2F)CC1)c1ccc(Br)o1
[17] Cc1cc(C)nc(NC(=O)c2cc(-c3ccc4c(c3)OCO4)nc3ccccc23)c1
[1] CCCNC(=O)OCCC12CC3CC(CC(C3)C1)C2
[9] COc1ccc(CC(=O)Nc2sc3c(c2C(N)=O)CCCC3)cc1OC

Screen / compound no.,10,16,6,17,1,9
MT1-MMP act inh,9,-6,3,-9,-3,-2
MT1-MMP act inh RFP,-2,-6,3,-1,-4,-15
Rce1 inh,i,i,i,i,i,i
PABP FP inh,.,-13,6,-8,-3,13
CSC inhib,.,-5,-9,9,12,0
eIF4H FP inh,.,-4,-10,0,7,-9
HIV Env fusion,5,.,3,-10,17,-9
Yeast UUG start,-8,-17,-9,-12,-13,-11

# (cont.)
[21] CCC(=O)n1nc(-c2cccnc2)nc1NCc1ccccc1
[22] O=C(CCS(=O)(=O)c1cccs1)Nc1ccc(C(=O)NC2CCN(Cc3ccccc3)CC2)cc1
[23] CC(=O)Nc1c(-c2ccccc2)nc2ccc(Cl)cn12
[24] COc1ccc(CNC(=O)c2ccc(NC(=O)C3=CSCCO3)cc2)cc1
[25] O=C(NCC(c1ccco1)N1CCc2ccccc2C1)c1c(F)cccc1F (stereo not given)
[26] COc1cccc(N(CC(=O)NC2CCCCC2)C(=O)Cn2nnc(-c3ccc(C)o3)n2)c1
[27] Cc1ccc(CNC(=O)COC(=O)c2ccc(S(=O)(=O)NCc3ccco3)cc2)cc1
[28] O=C(Oc1ccc(C(=S)N2CCOCC2)cc1)c1ccc(Br)cc1
[29] O=C1CC2CCCN2C=C1I (stereo not given)
[30] Cc1cccc(C(=O)NCC(=O)Nc2ccc(S(=O)(=O)Nc3nc(C)cc(C)n3)cc2)c1

Screen / compound no.,21,22,23,24,25,26,27,28,29,30
MT1-MMP act inh,2,2,-1,1,-1,0,-2,1,-7,2
MT1-MMP act inh RFP,2,-3,3,2,1,1,2,3,2,4
Rce1 inh,i,i,i,i,i,i,.,i,.,i
PABP FP inh,-7,-3,.,0,.,0,.,4,.,16
CSC inhib,.,-4,-10,-1,2,.,-10,-3,.,-15
eIF4H FP inh,7,-2,.,-2,.,-8,.,7,.,0
HIV Env fusion,5,7,-9,-13,-18,-21,4,-20,-11,18
Yeast UUG start,.,-6,-21,-8,-15,-10,-13,-2,-2,.

[31] CN(C(=O)c1cccc(NC(=O)c2ccccc2)c1)C1CCCCC1
[32] CCN1C(=O)S/C(=C/c2cn(C)c3ccccc23)C1=O
[33] COc1ccc(-c2cnnc(N/N=C/c3ccc(OC)c(OC)c3)n2)cc1
[34] C=CCCN([C@H](CO)Cc1ccccc1)S(=O)(=O)c1ccccc1Br
[35] Cc1ccnc(SCCn2c(N3CCOCC3)nc3c2c(=O)[nH]c(=O)n3C)n1
[36] O=C1[C@H]2[C@@H](c3ccc(F)cc3)N3C(=O)N(c4ccc(C(F)(F)F)cc4)C(=O)[C@@]3(Cc3ccccc3)[C@H]2C(=O)N1C1CCCCC1
[37] Cc1cc(C)n(-c2ccc(C(=O)O)cc2[N+](=O)[O-])n1
[38] Oc1ccccc1C1OCC2(CO1)COC(c1ccccc1O)OC2 (stereo not given)
[39] CCCS(=O)(=O)N1CCC(C(=O)NCCc2ccccc2)CC1
[40] CN(C)CC1CCCCC1OC(=O)/C=C/c1ccc(Cl)cc1Cl (stereo not given)

Screen / compound no.,31,32,33,34,35,36,37,38,39,40
MT1-MMP act inh,-3,3,29,1,-3,-2,-5,2,1,5
MT1-MMP act inh RFP,-5,1,3,2,1,-7,0,16,3,0
Rce1 inh,i,i,i,.,i,i,i,i,.,i
PABP FP inh,-9,7,-11,.,.,.,-7,-1,-11,7
CSC inhib,.,23,2,.,-1,33,-10,-15,-4,17
eIF4H FP inh,4,5,-11,.,.,.,4,7,-4,-3
HIV Env fusion,4,-20,-13,-15,.,79*,-3,.,.,-23
Yeast UUG start,17,.,-23,-4,-7,-8,-3,-12,-16,.

[41] CCOC(=O)c1c(C)[nH]c(C(=O)COC(=O)C2CC2C)c1C (stereo not given)
[42] O=C(NCCN1CCN(c2ccccc2)CC1)C1CCN(S(=O)(=O)c2cccs2)CC1
[43] COc1ccccc1C(=O)OCC(=O)Nc1ccc(OC(F)F)cc1
[44] Cc1cccc2c1cnn2C(=O)CCC(=O)NCC(C)c1ccccc1 (stereo not given)
[45] CN(Cc1cc2ccccc2[nH]c1=O)C(=O)COc1ccccc1
[46] O=C(CSc1nnc(Cc2cccs2)n1-c1ccccc1)Nc1ccc2c(c1)OCCO2
[47] CC(C(=O)Nc1cc(Cl)cc(Cl)c1)N1CCCC1 (stereo not given)
[48] CCOC(=O)N1CCN(C(=O)c2nn(C)c3c2CSc2ccccc2-3)CC1
[49] Cc1ccc(S(=O)(=O)Nc2ccccc2CNc2cccc(C)n2)cc1
[50] Cc1cc(C)c(C#N)c(SCCS(=O)(=O)Cc2ccc(Cl)cc2)n1

Screen / compound no.,41,42,43,44,45,46,47,48,49,50
MT1-MMP act inh,-4,3,-2,-4,-6,2,-3,-5,-8,1
MT1-MMP act inh RFP,-3,-4,1,3,0,0,0,-6,-3,0
Rce1 inh,i,.,i,i,i,i,i,i,i,i
PABP FP inh,11,-4,2,-1,-3,-1,4,15,10,-8
CSC inhib,1,.,-17,-2,-9,-2,.,-21,14,7
eIF4H FP inh,0,-8,-10,-5,0,7,7,-16,0,-11
HIV Env fusion,.,.,.,-14,9,.,-1,29,12,.
Yeast UUG start,-24,-6,-17,-9,.,-11,-10,-13,2,.

# As entered above:
# cpd 1 in MT1-MMP act inh RFP reads -4
# cpd 48 in PABP FP inh reads 15

# Going on with the list:
[51] O=C(Nc1ccc(N2CCOCC2)cc1)Nc1cnsn1
[52] Cc1cc(C)cc(N(CC(=O)NC2CCCC2)C(=O)CCC(=O)Nc2cc(C)ccn2)c1
[53] Cc1cc(=O)oc2c(C)c(OC(C)C(=O)Nc3ccc(N4CCC(C)CC4)cc3)ccc12 (stereo not given)
[54] CCOC(=O)c1c(-c2ccccc2)csc1NC(=O)c1ccc(S(=O)(=O)N2CCOCC2)cc1
[55] COc1ccc2ccccc2c1CN1CCSCC1
[56] O=C(NCc1ccccc1)c1ccc(S(=O)(=O)Nc2cccc(C(F)(F)F)c2)cc1
[57] O=C(Cn1cnc2c(nnn2-c2ccc(F)cc2)c1=O)N1CCCC1
[58] COc1ccc(NC(=O)C2=CCN(S(=O)(=O)c3ccccc3)CC2)cc1OC
[59] COc1ccc(C2CC(c3ccccc3)n3nc(NC(=O)c4cccs4)nc3N2)cc1 (stereo not given)

Screen / compound no.,51,52,53,54,55,56,57,58,59
MT1-MMP act inh,-5,-1,0,3,2,2,-2,5,-3
MT1-MMP act inh RFP,-7,-1,4,-5,3,-9,2,-2,-2
Rce1 inh,i,i,i,i,i,i,i,i,i
PABP FP inh,-7,0,-10,-4,8,29,2,15,1
CSC inhib,-18,-16,14,6,-3,13,0,-1,-7
eIF4H FP inh,-2,-1,-19,22,23,14,1,0,10
HIV Env fusion,.,3,9,9,8,16,-158,20,.
Yeast UUG start,-14,-14,-12,10,-17,-23,-19,.,-23

# Assay outcomes: PubChem BioAssay, several laboratories

# An excerpt. The share of hits here may be higher or lower than overall.
